From PubChem
KCNQ2 enhance: potentiators of rat KCNQ2 potassium channel; AID 2239, 2010; actives 0.54% (n = 310,000); B-score at 10 µM; Potassium voltage-gated channel subfamily KQT member 2 (Rattus norvegicus), O88943; CHO-K1 KCNQ2, FluxOR thallium flux fluorescence; hits give high values;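 active means fluorescence ratio B-score at least 3 SD of library B-scores, with initial fluorescence B-score within 3 SD, cut at about 5.3 in these data; same plate scores as AID 2156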;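 further: B-score of peak minus minimum over baseline fluorescence ratio after K+ and Tl+ stimulus; positive B-score means potentiation of KCNQ2 with more thallium influx and brighter signal; only the inactives scoring about 0 or higher are listed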
Target sequence (O88943 whole entry, looked up): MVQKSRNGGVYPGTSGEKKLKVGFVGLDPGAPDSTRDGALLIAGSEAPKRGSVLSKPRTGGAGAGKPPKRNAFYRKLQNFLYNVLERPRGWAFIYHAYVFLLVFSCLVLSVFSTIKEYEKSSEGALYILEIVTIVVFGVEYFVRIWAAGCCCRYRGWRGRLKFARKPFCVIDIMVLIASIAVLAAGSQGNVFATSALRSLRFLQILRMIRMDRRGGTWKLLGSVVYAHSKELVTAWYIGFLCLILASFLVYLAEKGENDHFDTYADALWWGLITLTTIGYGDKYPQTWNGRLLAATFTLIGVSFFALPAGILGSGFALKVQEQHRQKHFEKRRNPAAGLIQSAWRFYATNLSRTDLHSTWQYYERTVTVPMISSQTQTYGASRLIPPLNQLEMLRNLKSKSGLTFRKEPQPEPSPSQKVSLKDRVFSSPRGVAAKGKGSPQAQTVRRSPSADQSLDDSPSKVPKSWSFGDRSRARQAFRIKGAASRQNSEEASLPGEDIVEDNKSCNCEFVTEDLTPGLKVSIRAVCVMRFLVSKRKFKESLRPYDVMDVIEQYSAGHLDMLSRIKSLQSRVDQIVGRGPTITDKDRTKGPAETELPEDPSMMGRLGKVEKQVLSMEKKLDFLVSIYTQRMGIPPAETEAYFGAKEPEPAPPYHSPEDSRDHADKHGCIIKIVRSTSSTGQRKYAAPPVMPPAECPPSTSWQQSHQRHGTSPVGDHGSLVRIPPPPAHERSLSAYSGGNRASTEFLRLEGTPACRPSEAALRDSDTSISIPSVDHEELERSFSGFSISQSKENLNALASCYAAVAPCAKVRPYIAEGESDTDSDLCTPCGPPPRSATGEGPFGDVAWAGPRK
KCNQ2 enhance baseline: second read-out of KCNQ2 enhance, no call of its own (marks repeat the call); B-score; compound at 10 µM; measured here: initial fluorescence intensity artifact check;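 brightness before thallium and not channel activity; 0 = typical well and far values either way flag optical interference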
An asterisk follows results filed as active.

Every second line gives: KCNQ2 enhance	KCNQ2 enhance baseline
C=CCNc1nc(NCC)nc(N2CCOCC2)n1
 : 0.62	-3.5
Cc1ccc(CNC(=O)CNC(=O)c2c(C)nn(C)c2Cl)cc1
 : 0.02	1.5
CCOC(=O)c1c(C)[nH]c(C(=O)OCC(=O)N(C)CC(=O)Nc2ccccc2Cl)c1C
 : 0.21	0.3
O=C(NCCN1CCNC1=O)C1CCC(=O)N(Cc2ccccc2F)C1 (configuration not stated)
 : 0.02	0.28
CCN(CC)C(=O)CSc1nc2cc3c(cc2c(=O)n1Cc1ccc2c(c1)OCO2)OCO3
 : 0.29	0.65
O=C(COC(=O)Cn1cnc2ccccc21)NCc1ccc(F)cc1
 : 1.1	-1.3
O=C(O)c1ccc(N/N=C/C2=C(N3CCOCC3)C(=C\c3ccccc3)/CC2)cc1
 : 0.78	3.8
Nn1c(-c2cccs2)nc2sc3c(c2c1=O)CCCC3
 : 0.33	0.27
O=C(CCN1C(=O)/C(=C\C=C\c2ccccc2)SC1=S)Nc1cccc(C(=O)O)c1
 : 1.9	-1.1
O=C(Nc1ccc2ccccc2n1)Nc1ccccc1F
 : 1.4	-1.4
C=CCn1c(Cc2ccccc2)nnc1SCc1nc2ccccc2c(=O)[nH]1
 : 2.1	0.42
CSc1nc2nc(-c3ccccc3)cc(=O)n2[nH]1
 : 1.5	0.26
CC(C)Cn1c(N)cc(=O)n(C)c1=O
 : 1.3	1
Cc1ccsc1/C=N\Nc1cn[nH]c(=O)c1Cl
 : 1.1	0.11
COC(=O)c1cn(CC(=O)Nc2ccc(F)cc2)c2ccccc12
 : 3.2	-0.95
CC(=O)N1CCCc2cc(S(=O)(=O)CCC(=O)N3CCN(c4cccc(C)c4)C(C)C3)ccc21 (configuration not stated)
 : 2.1	-1.9
Nc1nc2ccccc2n1/N=C/c1ccc(Br)cc1
 : 0.82	0.07
O=C(NCCc1ccccc1)c1ccc2nc(-c3ccco3)c(-c3ccco3)nc2c1
 : 0.57	0.64
O=C(NC(=S)N1CCOCC1)c1ccc(F)cc1
 : 0.02	0.46
Clc1ccc(Cn2ncc3c(NCCN4CCOCC4)ncnc32)cc1
 : 1.1	0.36
O=C(CN1CCOc2ccccc21)N1CCCC1
 : 0.31	-2
COc1cc(C(=O)OCCC(C)C)cc(OC)c1O
 : 1.8	-1.3
Cn1c(-c2ccc(C=O)s2)nc2ccccc21
 : 2.4	-0.05
O=C(CCc1nc2ccccc2c(=O)[nH]1)Nc1nnc(SCc2ccc(F)cc2)s1
 : 1.4	0.71
COc1ccc(C(=O)Nc2cc(-c3nn4c(C)nnc4s3)ccc2C)cc1
 : 0.65	-0.42
CC(=O)Nc1cccc(NC(=O)C2CCCN2C(=O)Nc2ccccc2C)c1 (configuration not stated)
 : 0.52	-0.82
CN(Cc1ccccc1)C(=O)C1CCC(CNS(=O)(=O)c2cccc3cccnc23)CC1 (configuration not stated)
 : 0.04	0.05
Cc1cc2cc(C(c3nnnn3CC3CCCO3)N3CCCc4ccccc43)c(=O)[nH]c2cc1C (configuration not stated)
 : 0.15	0.97
O=C(COC(=O)/C=C/c1ccccc1)Nc1cc(C(F)(F)F)ccc1N1CCOCC1
 : 1	-1.7
O=[N+]([O-])c1ccccc1S(=O)(=O)c1ccccc1[N+](=O)[O-]
 : 0.48	-0.13

Next part.
Every second line gives: KCNQ2 enhance	KCNQ2 enhance baseline
COc1ccccc1Nc1nc(N(C)c2ccccc2)nc(N)c1[N+](=O)[O-]
 : 0.48	0.41
O=C(Nc1nnc(SCC(=O)N2CCOCC2)s1)C1CC(=O)N(c2ccc(F)cc2)C1 (configuration not stated)
 : 0.86	-0.02
Cc1ccc(-n2cnnn2)c(S(=O)(=O)N2CCOCC2)c1
 : 0.05	1.2
O=C(CN(c1ccc2c(c1)OCCO2)S(=O)(=O)c1ccccc1)NCc1ccco1
 : 0.77	0.39
CC12CC3CC(C)(C1)CC(C(=O)N1CCN(C(=O)C4CCCO4)CC1)(C3)C2 (configuration not stated)
 : 0.51	-0.52
O=C(Cn1cnc2ccccc2c1=O)c1ccc(OC(F)F)cc1
 : 0.26	-0.67
COc1ccc(NC(=O)NCCc2c[nH]c3ccccc23)c(OC)c1
 : 0.01	-0.02
O=[N+]([O-])c1ccc(NCc2ccccn2)nc1
 : 0.03	1.1
OCC1CCCN(c2nc(CN3CCCCC3)nc3scc(-c4ccccc4)c23)C1 (configuration not stated)
 : 1.4	-1.7
O=C(Nc1cccc(-c2cscn2)c1)C1CCN(Cc2ccccn2)CC1
 : 1.7	-0.98
CCOC(=O)/C(=N/Nc1ccccc1)Sc1nnnn1-c1ccc(C)cc1
 : 0.03	0.94
O=C(O)c1ccccc1-c1ccccc1C(=O)NNc1ccccc1
 : 0.96	-0.52
CS(=O)(=O)OCCCCOS(C)(=O)=O
 : 1.5	-0.92
CCOC(=O)C(C)c1c(C)[nH]c(=S)[nH]c1=O (configuration not stated)
 : 1.3	-0.91
CC1Cc2cc(/C(O)=C3\C(=O)C(=O)N(CCN4CCOCC4)C3c3ccccc3F)ccc2O1 (configuration not stated)
 : 0.07	0.21
CNC(=O)c1c(NC(=O)C2=COCCO2)sc2c1CCN(C(=O)OC)C2
 : 0.53	1
COc1ccc(NC(=O)[C@H](CCS(C)(=O)=O)N2Cc3ccccc3C2=O)c(OC)c1
 : 0.04	-2.1
CCN(CC(=O)Nc1c(F)cccc1F)C(=O)c1cc(C)oc1C
 : 2	-0.26
Cc1ccc2nsnc2c1S(=O)(=O)N1CCN(Cc2ccc3c(c2)OCO3)CC1
 : 0.82	-0.05
COC(=O)C1(C)Nc2ccccc2C(=O)N1c1ccccc1OC (configuration not stated)
 : 0.38	-0.08
O=C(Nc1ccc(-c2nc3ccccc3s2)cc1)C1=COCCO1
 : 0.37	1.2
COc1ccc(COC(=O)c2nc3nc(C)cc(C)n3n2)cc1F
 : 0.95	0.67
CC12CCC(=O)N1C(C(=O)Nc1ccc(F)c(F)c1F)CS2 (configuration not stated)
 : 0.11	-0.12
Cc1ccc(C)c(NS(=O)(=O)c2ccc3c(c2)NC(=O)CCS3)c1
 : 0.63	-1.2
Cc1nc2ccc([N+](=O)[O-])cc2c(=O)n1Cc1ccc(Br)cc1
 : 0.15	-0.44
CCOC(=O)c1c(NC(=O)c2ccncc2)sc(C)c1C
 : 0.44	0.48
COC(=O)c1ccc(COc2ccc(/C=N/Nc3cccc(C(=O)O)c3)cc2)cc1
 : 0.8	0.15
COc1ccccc1Cn1nc(C(=O)O)c2ccccc2c1=O
 : 0.35	0.31
CCN1CCN(c2nc3ccccc3n3cnnc23)CC1
 : 0.38	1.4
CC(=O)Nc1ccc(N(C(=O)c2cnccn2)C(C(=O)NC2CCCCC2)c2ccc(F)cc2)cc1 (configuration not stated)
 : 1.2	-0.42

Other results:
Every second line gives: KCNQ2 enhance	KCNQ2 enhance baseline
Nc1ccc(-c2nc3ccccc3[nH]2)cc1
 : 0.88	0.01
CCOC(=O)CN(C)Cc1cn[nH]c1-c1ccc2cc(OC)ccc2c1
 : 1.1	-1.9
C=CCNC(=S)NNC(=O)C(CC(C)C)CC(C)O (configuration not stated)
 : 0.03	-0.31
C/C(=N\Nc1ccc(C(=O)O)cc1)c1ccc(Cl)s1
 : 1.9	-0.23
CCCN(C(=O)COC(=O)Cn1c(=O)oc2ccccc21)c1c(N)n(Cc2ccccc2)c(=O)[nH]c1=O
 : 1.5	-1.3
Cc1ccc(/C=C2\SC(N)=NC2=O)s1
 : 0.08	0.33
O=C(COC(=O)C1(c2ccc(F)cc2)CCCC1)NC1CC1
 : 0.12	-0.06
COc1ccc(N=CC2=C(O)CC(C)(C)CC2=O)cc1OC
 : 2.3	-1.9
CCN1CCN(Cc2ccc(C(=O)Nc3ccc(C)c(NCc4cnc(NC(=O)OC)cn4)c3)cc2C(F)(F)F)CC1
 : 1.1	-2
CCn1c(=O)cc(SCC(=O)Nc2ccc3c(c2)OCCO3)c2ccccc21
 : 0.08	0.12
COc1ccc(NC(=O)C2CC(=O)n3c(nc4ccccc43)N2)cc1 (configuration not stated)
 : 1.3	-1.1
Cc1cc(C(=O)N/N=C/c2ccc(-c3ccc([N+](=O)[O-])cc3C)o2)n[nH]1
 : 1.2	-1.1
CCOc1ccc(C(=O)N/N=C/c2ccc(-c3ccc(S(=O)(=O)Nc4ncccn4)cc3)o2)cc1
 : 1.6	-0.89
CC(=O)N1c2ccc(S(=O)(=O)N3CCC(C(=O)NCc4ccc(N(C)C)cc4)CC3)cc2CC1C (configuration not stated)
 : 0.05	-0.61
COc1ccc(CC(=O)NCCCc2ccccc2)cc1OC
 : 0.1	0.7
Cc1ccc(N2CC(C(=O)NCc3cccs3)CC2=O)cc1C (configuration not stated)
 : 0.68	-4.8
Nc1ccccc1-c1nnc(-c2ccc(-c3ccccc3)cc2)o1
 : 1.2	2.2
CCOc1cc(-c2sc(Nc3ccccc3)n[n+]2-c2ccc(F)cc2)ccc1OC
 : 0.33	1.1
CC(C)(C)Nc1nc2nonc2nc1NC(C)(C)C
 : 0.95	-0.86
CC(C)[C@H](NC(=O)c1ccccc1F)C(=O)NCc1ccc(S(N)(=O)=O)cc1
 : 0.13	-0.51
COc1ccccc1N1C(=O)CC(Sc2ccccc2N)C1=O (configuration not stated)
 : 0.2	1.4
Cn1cnnc1SCC(=O)NC1CCCN(Cc2ccccc2F)C1 (configuration not stated)
 : 0.47	0.14
CCC1CCc2c(sc(NC(=O)CSc3nc(-c4ccco4)cc(C(F)(F)F)n3)c2C#N)C1 (configuration not stated)
 : 0.33	0.3
COC(=O)c1ccc(N2CCN(S(=O)(=O)c3c(C)cc(C)cc3C)CC2)c([N+](=O)[O-])c1
 : 0.01	-1.3
CCc1cccc(C)c1NC(=O)CO/N=C(\C)c1cc2ccccc2o1
 : 0.72	2
O=C(CCC(F)(F)F)N1CCCC(N2CCN(c3cccc(Cl)c3)CC2)C1 (configuration not stated)
 : 1.3	-1
Cc1ccc(C)c(NC(=O)CCC(=O)NNC(=O)c2cccs2)c1
 : 1.5	-0.24
Brc1ccc(CSc2ccc3nnc(-c4ccccn4)n3n2)cc1
 : 1.5	0.72
CN1CCN(NC(=O)CN2C(=O)/C(=C/c3ccccc3F)SC2=S)CC1
 : 0.06	-0.16
CCOc1cc(CNCc2ccccn2)ccc1OCC(=O)NC(C)(C)C
 : 1.2	1

Whole records, quoted from the list. Order of screens: KCNQ2 enhance, KCNQ2 enhance baseline
CCN1CCN(Cc2ccc(C(=O)Nc3ccc(C)c(NCc4cnc(NC(=O)OC)cn4)c3)cc2C(F)(F)F)CC1 across the screens: 1.1, -2
O=C(NCCc1ccccc1)c1ccc2nc(-c3ccco3)c(-c3ccco3)nc2c1 across the screens: 0.57, 0.64

Next results follow:
Every second line gives: KCNQ2 enhance	KCNQ2 enhance baseline
COc1ccc(N(Cc2ccc(N(C)C)cc2)C(=O)c2ccc(S(C)(=O)=O)cc2)cc1
 : 0.03	-1.1
CCSc1nsc(NC(=O)Nc2ccccc2F)n1
 : 0.55	-0.07
COc1cc(/C=N/NC(=O)CCNC(=O)c2ccccc2Cl)ccc1O
 : 0.83	2.2
COc1ccccc1CNC(=O)CCS(=O)(=O)c1ccc2c(c1)CCCN2C(C)=O
 : 0.01	0.07
CSc1nnc(C)c(=O)n1COC(=O)COc1ccc2ccccc2c1
 : 0.56	1.3
Cn1cc(/C=N/NC(=O)c2cc3cc(Br)ccc3o2)c2ccccc21
 : 0.85	0.28
Cc1ccc(S(=O)(=O)CC(O)CN2CCCC2=O)cc1 (configuration not stated)
 : 1.5	-0.76
COc1cc(/C=N/NC(=O)c2ccccn2)ccc1OC(=O)c1cccs1
 : 0.12	-0.02
CC(=O)Nc1ccc(NC(=O)C(=O)NCC(c2ccco2)N2CCc3ccccc32)cc1 (configuration not stated)
 : 2.5	-0.53
CC1CCc2c(sc3[nH]c(=S)n(C)c(=O)c23)C1 (configuration not stated)
 : 20*	-1.4*
CC(=O)N1CCN(c2ccc(NC(=O)c3ccco3)cc2)CC1
 : 1.1	-1.5
Cc1ccccc1NC(=S)NC(=O)COc1ccccc1C
 : 1.9	-0.32
CC1CCCN(CC(=O)Nc2ccc(S(=O)(=O)N3CCCC3)cc2)C1 (configuration not stated)
 : 0.35	-1.7
Fc1cccc(CSc2ncnc3c2oc2ccccc23)c1
 : 0.42	-1.1
O=C(CSCc1ccc([N+](=O)[O-])cc1)Nc1cccc(C(=O)Nc2ccccc2C(=O)O)c1
 : 0.21	0.66
Cc1ccc(-c2csc(NCCn3c(C(F)(F)F)nc4ccccc43)n2)cc1
 : 1.1	0.02
O=c1cc(NCCCO)c2ccccc2o1
 : 1.2	-2
Cc1ccc(Cn2nnc3c(=O)[nH]c(C4CCCN(S(=O)(=O)c5ccccc5F)C4)nc32)cc1 (configuration not stated)
 : 0.64	2
O=C(NC1CCCCCC1)c1ccc[nH]c1=S
 : 1.9	0.27
CC(=O)Nc1ccc(S(=O)(=O)NC2(C(F)(F)F)C(=O)Nc3c2c(=O)[nH]c(=O)n3Cc2cccnc2)cc1 (configuration not stated)
 : 1.3	-0.03
O=C(NCc1ccccc1Cl)c1cccc(NC(=O)c2ccccc2)c1
 : 1.2	1.8
COc1cccc(NC(=O)N2CCN(c3cccc(C)c3)C(C)C2)c1 (configuration not stated)
 : 3.2	-1.6
CN(C(=O)c1ccc(S(=O)(=O)N2CCOCC2)cc1)C1CCS(=O)(=O)C1 (configuration not stated)
 : 0.62	0.14
COc1ccccc1NC(=O)CSc1nc(=O)n(Cc2ccncc2)c2c1CCCC2
 : 0.47	-0.14

5 entries from above in a different format:
| KCNQ2 enhance | KCNQ2 enhance baseline | SMILES |
| --- | --- | --- |
| 20* | -1.4* | CC1CCc2c(sc3[nH]c(=S)n(C)c(=O)c23)C1 (configuration not stated) |
| 0.83 | 2.2 | COc1cc(/C=N/NC(=O)CCNC(=O)c2ccccc2Cl)ccc1O |
| 1.9 | -0.32 | Cc1ccccc1NC(=S)NC(=O)COc1ccccc1C |
| 0.42 | -1.1 | Fc1cccc(CSc2ncnc3c2oc2ccccc23)c1 |
| 2.5 | -0.53 | CC(=O)Nc1ccc(NC(=O)C(=O)NCC(c2ccco2)N2CCc3ccccc32)cc1 (configuration not stated) |

The list is partial; the hit share may differ from the screen's.
